Compound activity from PubChem BioAssay.
Biofilm kill mix = mixtures killing C. albicans biofilm; C. albicans biofilm persisters + clotrimazole, fluorescence viability; primary screen in compound mixtures of four per well; inhibition, % at 7.6 µM; 0.02% of 120,000 active; AID 1242;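 active = inhibition above 30.3% in the primary screen of four-compound pools, then above 30% when the compound was retested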;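 also: compounds exposed to preformed 24 h biofilms for 48 h; the number belongs to the whole pool; some results filed as inactive read as strong as hits; inactives centre near 12; 0% = biofilm with clotrimazole alone and 100% = kill control; retested singly at about 60 µM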
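Test system: C. albicans biofilms. Buffer or medium: RPMI/MOPS medium, pH 7.0. Timing: 48 h compound exposure at 37 °C. Technique: Alamar Blue fluorescence. Evaluation: percent inhibition of biofilm viability.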
An asterisk follows results filed as active; & = joins results of further samples. An excerpt, so the mix of outcomes need not match the whole.

SMILES	Biofilm kill mix
Cc1ccc(N=C2NC(=O)/C(=C/c3cccs3)S2)cc1C	14
CC1=NN(C(=O)c2cc(C)nn2C)C(O)(C(F)(F)F)C1 (stereo unspecified)	13
COCCCNC(=S)N1CCCN(c2nc3cc(C)c(C)cc3cc2C#N)CC1	1
Cn1c2ccccc2c2cnn(CC(=O)Nc3ccccc3Br)c(=O)c21	13
O=[N+]([O-])c1ccc(Nc2nc(N/N=C/c3cccc(F)c3)nc(N3CCCC3)n2)cc1	-5
O=C(COc1ncnc2ccccc12)N1CCN(c2ccccc2)CC1	1
CN1C(=O)S/C(=C/c2cccn2-c2cccc(C(=O)O)c2)C1=O	5
Cc1cc(C)cc(C(=O)NCC(=O)OCC(=O)N2CCCCC2)c1	14
Cn1cc(C(=O)N/N=C/c2cc(Br)cs2)c2ccccc21	16
CCc1ccc(NC(=O)c2cc(-c3cccs3)on2)cc1	16

Copied from the list.
Reading of Cn1cc(C(=O)N/N=C/c2cc(Br)cs2)c2ccccc21 in Biofilm kill mix: 16
Reading of CCc1ccc(NC(=O)c2cc(-c3cccs3)on2)cc1 in Biofilm kill mix: 16

(next part)
SMILES	Biofilm kill mix
OCCC1CN(Cc2cccn2-c2cccnc2)CCN1Cc1ccccc1 (stereo unspecified)	21
Cc1csc(NC(=O)c2ccc(Cl)cc2[N+](=O)[O-])n1	12
O=C1CCC/C(=N/NC(=O)c2sc3ccccc3c2Cl)C1	16
O=C(NN1C(=O)C2C3C=CC(C3)C2C1=O)c1cccc(Cl)c1 (stereo unspecified)	9
Cn1c(SCc2nc3ccccc3c(=O)[nH]2)nc2ccccc21	10
CC(C)C(NC(=O)C1CCC(C(C)(C)C)CC1)C(=O)NCCCN1CCCCC1 (stereo unspecified)	11
COC(=O)c1ccccc1NC(=O)CN1CCC(C)CC1	6
Cn1c(=O)c2c(n3cnnc13)-c1ccccc1CC21CCCC1	12
C=C(C)C1CC=C(C)/C(=N\NC(=S)Nc2ccc(C)cc2)C1 (stereo unspecified)	10
CCCCOc1ccc(C(NC(=O)OCC)NC(=O)OCC)cc1	10
COc1cc2nc(CN3CCC(Cc4ccccc4)CC3)[nH]c(=O)c2cc1OC	18
CC1(C)CC(O)C(C(O)c2cccc([N+](=O)[O-])c2)C(C)(C)N1 (stereo unspecified)	16
CSc1nnc(CNC(=O)C23CC4CC(CC(C4)C2)C3)n1Cc1ccccc1	8
N#CCCN(C(=O)CO/N=C/c1cccc([N+](=O)[O-])c1)c1ccccc1	11
O=C1CN(CC(=O)NC(=O)NCc2ccccc2)CCN1	12
C=CCN1C=C/C(=C\C=C(C#N)C#N)c2ccccc21	18
CC(C)[C@H](NC(N)=O)C(=O)Nc1cccc([N+](=O)[O-])c1	12
CN(C)C(=O)c1c(C(F)(F)F)nn(C)c1Cl	11
COc1cnn(-c2ccc(C)cc2)c(=O)c1Br	6
C/C=C\C=C/C(=O)Nc1cccc(C2=NOC3(C2)C[C@@H](C(N)=O)N(C(=O)COc2ccc(Cl)cc2)C3)c1 (stereo partly specified)	11
CCO/N=C(\N)c1[nH]ncc1Br	17
Cc1nc(N2CCOCC2)nc(Oc2ccccc2)c1[N+](=O)[O-]	9
COCCCNC(=S)N(Cc1cccnc1)Cc1ccc(OC)c(OC)c1	8
Cc1ccc(CNC(=S)Nc2cc(C)ccc2OC(F)F)cc1	16
CN(Cc1ccccc1)C(=S)Nc1ccc2nc3n(c(=O)c2c1)CCCCC3	2
CCCCN(C)Cc1c(C(=O)N2CCc3ccccc3C2)nc2ccc(Cl)cn12	4
O=C(c1ccco1)N(Cc1ccc2c(c1)OCO2)Cc1cc2cc3c(cc2[nH]c1=O)OCO3	7
CC(CS(=O)(=O)c1ccccc1[N+](=O)[O-])N1CCOCC1 (stereo unspecified)	21
Cc1ccc(NC2CCCCC2NS(=O)(=O)c2ccc(Cl)cc2)cc1 (stereo unspecified)	13
COCCCNCCCOc1ccc(Cl)cc1C(C)(C)C	11
CC(=O)N1N=C(c2cccc([N+](=O)[O-])c2)OC1c1ccc(Br)cc1 (stereo unspecified)	21
CCOC(=O)/C(C#N)=C/c1c(Oc2cccc(C)c2)nc2c(C)cccn2c1=O	15
COc1ccc(C(=O)c2coc3c2C(=O)C(=O)c2ccccc2-3)cc1	1
CCCOc1ccc(C(=O)NCCC(=O)NCCCC(=O)O)cc1	26
COc1ccc(/C=C/C(=O)c2ccc[nH]2)c(OC)c1OC	-5
COc1ccc(C2/C(=C(/O)c3ccc(C)cc3)C(=O)C(=O)N2CC2CCCO2)cc1OC (stereo unspecified)	14
Cc1cc(C)cc(C(=O)NC(CC(N)=O)c2ccc(NC3CCCCC3)c([N+](=O)[O-])c2)c1 (stereo unspecified)	17
COc1ccccc1/C=N/NC(=O)c1csc(C)c1C	10
Cc1cc(C)c2c(NC(=S)NC(=O)c3ccccc3)nn(C)c2n1	18
O=C(Nc1ncccc1Cl)c1ccc2c(c1)OCCO2	5
CC1CN(C(=O)Nc2ccccc2)c2ccccc2-[n+]2ccsc21 (stereo unspecified)	11
CCCc1cc2c(=O)c(-c3nc4ccccc4s3)c(COCC(=O)O)oc2cc1O	17
O=C(NNc1nc(=O)c2cccnc2s1)c1ccccc1O	31
S=C1NC2=C(CCC/C2=C\c2ccccc2)C(c2ccccc2)N1 (stereo unspecified)	11
Cc1ccc(C)c(C(C)NC(=O)CC#N)c1 (stereo unspecified)	-13
CN(C)Cc1ccccc1Sc1ccc(O)cc1O	1
CC(NC(=S)Nc1ccc(OC(F)F)cc1)c1ccc(F)cc1 (stereo unspecified)	8
O=C(NCc1ccccc1)c1ccc(Br)cc1Br	10
CN(CC(=O)Nc1ccccc1F)S(=O)(=O)c1ccc2c(c1)n(C)c(=O)c(=O)n2C	-2
Cc1ccc(/C=C/C(=O)Nc2cc(S(=O)(=O)N3CCCCCC3)ccc2OCC(F)(F)F)o1	10
Carrying on.
SMILES	Biofilm kill mix
CC(=O)N1CCc2cc(N=NC3=C(O)CCCC3=O)ccc21	11
Cn1c(CSc2ncccn2)nnc1SCC(=O)N1CCCCCC1	17
O=C(COC(=O)c1ccc(Cl)nc1)c1ccc2c(c1)OCCO2	16
COc1cc(C2CC(=O)Oc3c(C(CCN4CCN(c5ccccc5)CC4)c4ccc(N(C)C)cc4)c(OC)cc(OC)c32)cc(OC)c1OC (stereo unspecified)	14
Cc1cc(=O)n(CC(C)O)c(O)c1C#N (stereo unspecified)	6
Cc1cc(C)c(NC(=O)c2c[nH]c(=S)n2-c2ccc(F)cc2)c(C)c1	13
CCn1cc(C(=O)N2CCN(c3ccccc3F)CC2)c(=O)c2ccc(C)nc21	14
CCOC(=O)c1ccc(Nc2c(OCC)c(=O)c2=O)cc1	20
Cc1ccc(-c2nn3c(C)nnc3s2)cc1NC(=O)c1ccco1	7
C=CCOn1c(=O)c(-c2ccccc2)[n+]([O-])c2ccccc21	24
Cc1ccc(NC(=O)C2CCN(C(=O)c3ccccc3C)CC2)cc1	16
CC(C)(C)N=C1NN=C(c2cc3ccccc3o2)CS1	15
CCOC(=O)c1c(C)[nH]c(C(=O)COC(=O)C2=NNC(=O)CC2)c1C	10
O=C(N1CCCC1)C(F)(F)Oc1ccc(F)cc1	-8
COc1nc(OCC#N)nc(N2CCCCC2)n1	9
Cc1cc(C)nc(NC(=O)c2ccc(Cl)c([N+](=O)[O-])c2)n1	24
Cc1oc2c(O)c(O)ccc2c(=O)c1-c1ccccc1	15
COC(=O)/C=C1\N/C(=N\c2nc(C)cc(C)n2)N(c2ccc(C)cc2)C1=O	9
O=C(O)C(O)Cc1c[nH]c2ccccc12 (stereo unspecified)	13
CC1C[N+](=C2C=C(N3CCOCC3)CC(C)(C)C2)CC(C)O1 (stereo unspecified)	13

An excerpt from above in order of molar mass, low to high:
SMILES	Biofilm kill mix
O=C(O)C(O)Cc1c[nH]c2ccccc12 (stereo unspecified)	13
CN(C)Cc1ccccc1Sc1ccc(O)cc1O	1
COc1ccc(/C=C/C(=O)c2ccc[nH]2)c(OC)c1OC	-5
CCOC(=O)c1ccc(Nc2c(OCC)c(=O)c2=O)cc1	20
O=C(Nc1ncccc1Cl)c1ccc2c(c1)OCCO2	5
Cn1c(=O)c2c(n3cnnc13)-c1ccccc1CC21CCCC1	12
CC1(C)CC(O)C(C(O)c2cccc([N+](=O)[O-])c2)C(C)(C)N1 (stereo unspecified)	16
O=C(NNc1nc(=O)c2cccnc2s1)c1ccccc1O	31
O=C(NN1C(=O)C2C3C=CC(C3)C2C1=O)c1cccc(Cl)c1 (stereo unspecified)	9
CN1C(=O)S/C(=C/c2cccn2-c2cccc(C(=O)O)c2)C1=O	5
CCCOc1ccc(C(=O)NCCC(=O)NCCCC(=O)O)cc1	26
CCOC(=O)c1c(C)[nH]c(C(=O)COC(=O)C2=NNC(=O)CC2)c1C	10
COC(=O)/C=C1\N/C(=N\c2nc(C)cc(C)n2)N(c2ccc(C)cc2)C1=O	9
O=C(NCc1ccccc1)c1ccc(Br)cc1Br	10
OCCC1CN(Cc2cccn2-c2cccnc2)CCN1Cc1ccccc1 (stereo unspecified)	21
Cc1ccc(NC2CCCCC2NS(=O)(=O)c2ccc(Cl)cc2)cc1 (stereo unspecified)	13
CCOC(=O)/C(C#N)=C/c1c(Oc2cccc(C)c2)nc2c(C)cccn2c1=O	15
COCCCNC(=S)N(Cc1cccnc1)Cc1ccc(OC)c(OC)c1	8
CCCCN(C)Cc1c(C(=O)N2CCc3ccccc3C2)nc2ccc(Cl)cn12	4

(next part)
SMILES	Biofilm kill mix
CS(=O)(=O)N1CCN(c2ccccc2NC(=O)c2ccc3ccccc3c2)CC1	10
CN(C)/C=N/NC(=O)c1ccccc1Cl	14
COc1ccc(NC(=O)c2ccc(S(=O)(=O)C(F)F)cc2)c(OC)c1	5
COCCCNC1CS(=O)(=O)CC1O (stereo unspecified)	18
CC1CC(C)(C)OC(C[N+]2(C)CCCCC2)O1 (stereo unspecified)	16
CC(=O)OC(COc1ccccc1)Cn1cnc2cc(C)c(C)cc21 (stereo unspecified)	9
CCOC(=O)CNC(=O)c1ccc(OCC(F)(F)F)cc1	12
COc1ccc(C2CC(=O)Oc3c2c(=O)n(C)c2ccccc32)c(OC)c1OC (stereo unspecified)	5
O=C1C2C3C=CC(C3)C2C(=O)N1c1ccc2ccccc2n1 (stereo unspecified)	15
CSc1nsc2nc(=O)c(/C=C3\C(C)=Nc4ccc(C)cc43)c(N)n12	18
COc1ccccc1NC(NC(=O)c1ccccn1)C(Cl)(Cl)Cl (stereo unspecified)	-7
COc1ccc(NC(=S)/N=C(\N)Nc2nc(C)c3ccc(C)cc3n2)cc1	15
CCc1c(C)nc2c(-c3ccccc3)c(C)nn2c1Nc1ccc(NC(C)=O)cc1	7
C=C1C(=O)O[C@@H]2[C@H]1[C@@H](OC(=O)/C(C)=C/C)C/C(C)=C\C(=O)/C=C(\C)[C@@H]2O	9
CCOC(=O)c1csc(-n2nc(C)cc2C(F)(F)F)n1	8
O=C(C[n+]1ccccc1)N1CCCc2ccccc21	23
S=C(Nc1ccc(Cl)c(Cl)c1)NC1CCN(Cc2ccccc2)CC1	-42
CC1(C)CC(CCNS(=O)(=O)c2ccccc2)(c2ccccc2)CCO1 (stereo unspecified)	13
Cc1[nH]c2ccccc2c1/C=N/NC(=S)NCc1ccccc1	17
Cc1ccc(/C=C/C(=O)N2CCN(S(=O)(=O)c3cccs3)CC2)o1	12
Cc1nn(-c2ccccc2)c(Cl)c1/C=N/NC(=O)c1ccc(CNc2ccccc2)o1	15
NC(=O)Nc1ccc(C(=O)OCC(=O)Nc2cccc(S(=O)(=O)NC3=NCCCCC3)c2)cc1	10
O=C(CSc1nncs1)NC(=O)NCc1ccco1	31
COc1ccc(-c2[nH]ncc2[C@@H]2C[C@H]3CN(Cc4ccccc4C)C(=O)[C@]34CCCN24)cc1	18
CC(=O)c1cnc2scnn2c1=O	9
O=C1Nc2ccccc2N=C(c2ccccc2)C1Br (stereo unspecified)	26
C/C(=N\Nc1ccccc1)c1cc2ccccc2oc1=O	28
COc1cccc(NC(=O)CCSc2nnc3scc(-c4ccccc4)n23)c1	17
Cc1n[nH]c(=O)n1-c1ccc(C(C)C)cc1	8
CCOc1ccc(-n2c([S-])c(C(=O)Nc3ccc(S(=O)(=O)N4CCOCC4)cc3)[n+]3cc(C(N)=O)ccc23)cc1	11
CC1CCc2onc(C(=O)O)c2C1 (stereo unspecified)	15
CC(C)CCN1C(=O)c2ccc(C(=O)Nc3cccc(S(N)(=O)=O)c3)cc2C1=O	7
COc1ccc(C(C)=O)cc1COC(=O)CNC(=O)c1ccc(F)cc1	6
CC(=O)c1ccc(OC(C)C)c(CSC(=N)N)c1	1
Cc1cccc(C(C)(C)C)c1OCCN1CCCC1	12
COc1cc(C(=O)NCCc2cc3c(OC)ccc(OC)c3[nH]c2=O)cc(OC)c1OC	13
Cc1sc2ncn(CC(=O)NCCCC(=O)N3CCN(Cc4ccc5c(c4)OCO5)CC3)c(=O)c2c1C	5
COc1ccc(C)cc1N=Nc1ccc(O)c2ncccc12	19
CC(C)n1c(O)c(N=NC(=O)Cn2ccc(C(F)(F)F)n2)c2ccccc21	13
O=C(OCCN1CCCCC1)C1(c2ccccc2)CCCC1	26
Oc1[nH]c2ccc(Br)cc2c1N=NC(=S)N1CCOCC1	6
COc1ccc(-c2cc(C)nc(SCc3cccc(C(=O)O)c3)n2)cc1	6
CCOC(=O)C1(CC2CC2)CCN(Cc2cnc(-c3ccc(OC)cc3)nc2)CC1	18
CCOCc1[nH]c(=S)[nH]c(=O)c1Cc1ccc(OC(C)C)cc1	0
CCC(=O)N1N=C(c2ccc(C)o2)CC1c1ccc(OC)cc1 (stereo unspecified)	18
COC(=O)c1ccc(NC(=O)C2CC(=O)OC2c2ccccc2)cc1 (stereo unspecified)	30
O=C(O)c1ccc(COc2ccccc2/C=C2\NC(=O)N(Cc3ccc(F)cc3)C2=O)cc1	14
CC(=O)OCC(=O)[C@@]1(O)CC[C@H]2[C@@H]3CCC4=CC(=O)CC[C@]4(C)[C@H]3[C@@H](O)C[C@@]21C	10
Oc1ccc2ccccc2c1N=Nc1ccc(F)cc1	19&15
CC(=O)NC(CC(=O)OCC(=O)c1c(N)n(C)c(=O)n(C)c1=O)c1ccccc1 (stereo unspecified)	12
